# From PubChem
# TRPML1 ag: activates the human TRPML1 channel; hit rate 0.12% among 410,000; TRPML1-expressing cells, Ca2+ dye fluorescence, FDSS; host cell line not named in the record; reference of the full effect not given here; Q9GZU1; activation, % (test concentration not listed); in the data active = activation above about 50%; inconclusive = about 30% to 50%; inactive = below about 30%; note: 0% is about no effect; the text of the record puts the active cut at 80%
#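 In this qHTS format, compounds were pin-transferred onto Ca8-dye-loaded TRPML1-DL cells induced with Tet overnight, and intracellular Ca2+ fluorescence was recorded kinetically for 110 s after a 10 s baseline. A subsequent 4uM final 54-4 (EC80) addition followed by a second 110 s read served as the antagonist phase.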
# Six1-Eya2 inh: blocks human Six1 binding to Eya2; activity change, % (no concentration beside the values); AID 651725; hit rate 0.56% among 360,000; AlphaScreen GST-Six1/His-Eya2 binding, biochemical; active compounds read low; control for the full effect not named in the record; Q15475+O00167; in the data active = activity change below about -65%; inconclusive = about -30% to -65%; inactive = above about -30%; note: % is set by controls: 0 for no effect and ±100 for the full control effect
# Target sequence (O00167 whole entry, looked up): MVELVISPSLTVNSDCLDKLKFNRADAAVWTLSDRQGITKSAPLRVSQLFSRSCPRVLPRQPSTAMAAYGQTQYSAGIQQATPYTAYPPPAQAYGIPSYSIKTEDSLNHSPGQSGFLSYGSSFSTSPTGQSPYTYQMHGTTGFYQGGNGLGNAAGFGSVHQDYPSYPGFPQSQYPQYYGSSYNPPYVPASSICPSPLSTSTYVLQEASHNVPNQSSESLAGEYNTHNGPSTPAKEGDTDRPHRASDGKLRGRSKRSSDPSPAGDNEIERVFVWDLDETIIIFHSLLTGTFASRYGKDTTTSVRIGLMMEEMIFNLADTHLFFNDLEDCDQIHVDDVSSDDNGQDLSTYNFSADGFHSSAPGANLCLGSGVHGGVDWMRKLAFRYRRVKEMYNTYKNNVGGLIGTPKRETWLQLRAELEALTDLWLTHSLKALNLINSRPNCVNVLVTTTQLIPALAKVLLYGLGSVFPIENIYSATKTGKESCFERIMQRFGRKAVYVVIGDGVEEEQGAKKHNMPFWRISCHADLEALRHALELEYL
# Target sequence (Q15475 whole entry, looked up): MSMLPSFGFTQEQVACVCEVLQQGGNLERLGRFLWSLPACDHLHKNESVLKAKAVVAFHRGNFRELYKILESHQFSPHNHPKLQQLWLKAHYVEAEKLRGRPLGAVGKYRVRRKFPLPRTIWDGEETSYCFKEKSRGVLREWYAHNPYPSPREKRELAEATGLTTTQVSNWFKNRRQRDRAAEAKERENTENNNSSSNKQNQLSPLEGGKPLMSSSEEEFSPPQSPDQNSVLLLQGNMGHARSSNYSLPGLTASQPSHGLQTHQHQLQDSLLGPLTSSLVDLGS
#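 GST-Six1 + His-Eya2 (5X stock: 250/500 nM); Tris pH 8.0, 300 mM NaCl, 0.05% BSA, 0.02% Tween 20; GSH donor/Ni acceptor beads; 1 h 37 °C dark; AlphaScreen readout.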
# TRPML1 blocker: human mucolipin-1 channel inhibition | TRPML1-inducible cells, Ca2+ dye fluorescence, FDSS; active compounds read low; inhibition of EC80 agonist-evoked calcium signal | activity change, negative = inhibition, % (test concentration not listed) | hit rate 0.02% among 390,000 | AID 624415; in the data active means activity change below about -50%; inconclusive means about -30% to -50%; inactive means above about -30%;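 note: stimulus is agonist 54-4 at its EC80 concentration; % is set by controls: 0 for no effect and ±100 for the full control effect; compound concentration not given in the record; the text of the record puts the active cut at -80%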
#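 Calcium fluorescence in TRPML1-DL cells induced overnight with Tet: a 110 s read after compound pin addition, then a 110 s antagonist read after challenge with 54-4 at 4 uM final (EC80).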
# PINK1 modulator: PINK1 expression modulation | AID 624263 | Potency, µM (series often up to 76.6 µM), without a hit: at the highest dose activation (PINK1 increase), most hits filed as activators | hit rate 0.2% among 410,000 | PINK1 immunofluorescence, high-content cytometry, 24 h; active = well fitted activation curve with a large enough effect; inconclusive = small, poorly fitted or top-dose-only effect; inactive = flat fitted curve, though single readings scatter; cell line not stated here;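 note: potency is the fitted concentration of half-maximal effect; % of control where 0% means no effect; nearly all actives have a fitted effect of over 65% in size; a mitochondrial uncoupler was the plate control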
#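 Stable cell line treated 24 h with compounds at 5 concentrations (CCCP controls), then fixed and immunostained for PINK1 plus nuclear and cell stains; PINK1 immunofluorescence quantified by laser-scanning microplate cytometry.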
# D2 agonist: activates the human D2 dopamine receptor; DiscoveRx PathHunter D2 beta-arrestin, luminescence, 90 min; 100% = 57 uM dopamine signal; activation, % (no concentration beside the values); hit rate 0.084% among 360,000; AID 624465; in the data active = activation above about 40%; inconclusive = about 15% to 40%; inactive = below about 15%; note: compound concentration not given in the record; the text of the record calls up to 30% inactive
#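 Agonist mode: compounds alone added to overnight-plated D2 PathHunter cells for 90 min at 37 C, with 57 uM final dopamine (EC100) defining full response. Beta-arrestin recruitment detected by chemiluminescent reagent, read after 1 h at ambient temperature.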
# D2 PAM: positive allosteric modulators of human D2 dopamine receptor. DiscoveRx D2 beta-arrestin cells, luminescence, 90 min; 100% = 57 uM dopamine signal. potentiation, % (concentration not given with the values). hit rate 0.23% among 360,000. AID 624464; active = potentiation of 50% or more; inconclusive = 30% to 50%; inactive = 30% or less;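 note: compound concentration not given in the record; tested on top of an EC20 dose of dopamine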
#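 D2 cells co-treated with compound plus 50 nM dopamine (EC20) for 90 min at 37 deg C to detect potentiation. Beta-arrestin recruitment was read as enzyme-fragment luminescence after 1 h at ambient temperature. Full response was set by 57 uM dopamine.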
# The depositor's hits bear a star; ? = inconclusive; · = no result given; & = joins results of further samples; [ ] = another dose, or the depositor's remark. No enrichment for hits; any-hit rate near 1%.
no.	SMILES	TRPML1 ag	Six1-Eya2 inh	TRPML1 blocker	PINK1 modulator	D2 agonist	D2 PAM
1	COc1ccc(NC(=O)c2cc([N+](=O)[O-])ccc2O)cc1	0.9	7	5	28µM*	-5.8	-9
2	COC(=O)c1ccc(N2CCOCC2)c(NC(=O)c2ccc3c(c2)OCCO3)c1	0.3	2	15	0.6%	-3.1	5
3	CCN(c1ccccc1)S(=O)(=O)c1ccc2[nH]cc(C(=O)NCc3ccc(C)cc3)c(=O)c2c1	-0.7	·	1	2.5%	·	·
4	CCOC(=O)c1sc(=NC(=O)c2cccc(OC)c2)n(C)c1C	0.6	-1	6	·	-1.7	-9
5	COc1ccc(-n2ccnc2SCC(=O)Nc2ccc3c(c2)OCO3)cc1	1.0	·	0	3.2%	·	·
6	COc1ccccc1NC(NC(=O)c1ccco1)C(=O)c1ccccc1 (stereo unspecified)	0.2	-1	13	-5.6%[38.3 µM]	-2.6	-1
7	Cc1ccc(S(=O)(=O)NC(=O)Nc2ccccc2F)cc1	-0.3	5	-4	-1.1%	-3.8	-2
8	Cc1nnc(NC(=O)c2cccc(S(=O)(=O)N3CCc4ccccc43)c2)s1	0.1	3	11	2.0%	1.5	?
9	COc1ccc(S(=O)(=O)NC(=O)C2(C)CCN2C(=O)Cc2ccccc2Cl)cc1 (stereo unspecified)	-0.6	-10	·	-0.9%	-4.6	2
10	N#Cc1c(Nc2ccccc2)c(C=NCCN2CCOCC2)c[nH]c1=O	0.0	14	-16	1.0%	1.2	-5
11	O=C(Nc1ccc(Cl)cc1)N1CCOCC1	-0.3	7	-24	0.9%	-1.7	-8
12	CCn1cc(C(=O)N2CCN(c3cccc(C)c3C)CC2)c(=O)c2ccc(C)nc21	-0.5	-7	-11	0.2%	0.1	-1

# One compound at a time (already shown). Order of screens: TRPML1 ag | Six1-Eya2 inh | TRPML1 blocker | PINK1 modulator | D2 agonist | D2 PAM
# `COc1ccc(-n2ccnc2SCC(=O)Nc2ccc3c(c2)OCO3)cc1` in the list: 1.0 | · | 0 | 3.2% | · | ·
# `COC(=O)c1ccc(N2CCOCC2)c(NC(=O)c2ccc3c(c2)OCCO3)c1` in the list: 0.3 | 2 | 15 | 0.6% | -3.1 | 5
# `CCn1cc(C(=O)N2CCN(c3cccc(C)c3C)CC2)c(=O)c2ccc(C)nc21` in the list: -0.5 | -7 | -11 | 0.2% | 0.1 | -1
# `CCN(c1ccccc1)S(=O)(=O)c1ccc2[nH]cc(C(=O)NCc3ccc(C)cc3)c(=O)c2c1` in the list: -0.7 | · | 1 | 2.5% | · | ·
# `O=C(Nc1ccc(Cl)cc1)N1CCOCC1` in the list: -0.3 | 7 | -24 | 0.9% | -1.7 | -8

# Continuation:
no.	SMILES	TRPML1 ag	Six1-Eya2 inh	TRPML1 blocker	PINK1 modulator	D2 agonist	D2 PAM
13	CC1(C(=O)NS(=O)(=O)Cc2ccccc2)CCN1C(=O)C/C=C/c1ccccc1 (stereo unspecified)	0.0	0	·	1.4%	-1.4	-8
14	O=C(O)CNC(=O)/C(=C\c1ccco1)NC(=O)c1ccco1	·	-2	·	1.2%	0.4	5
15	COc1cc(/C=N/N2CCN(C3c4ccccc4-c4ccccc43)CC2)cc(OC)c1O	0.9	-22	11	7.1%	12	?
16	NC(=O)c1nn(-c2cccc(Cl)c2)c(=O)cc1O	-0.4	3	-3	-1.7%[38.3 µM]	0.7	-2
17	CN(C)S(=O)(=O)c1ccc(NC(=O)CN2C(=O)NC(Cc3ccccc3)C2=O)cc1 (stereo unspecified)	4.3	-1	23	0.4%	4.2	-1
18	O=C(Nc1nc(-c2ccc3ccccc3c2)cs1)c1ccc(N2C(=O)CCC2=O)cc1	-0.3	1	3	6.6%	-1.1	-6
19	CCN(CC)c1ccc(C=Nc2cc(C)ccc2C)c(O)c1	1.7	12	-19	3.3%	-0.3	1
20	O=C(CN1C(=O)COc2ccc(S(=O)(=O)N3CCCCCC3)cc21)N1CCN(c2ccc(Cl)cc2)CC1	1.1	·	15	-0.3%	·	·
21	COc1cccc(C(C(=O)NC2CCCC2)N(Cc2ccco2)C(=O)c2ccco2)c1OC (stereo unspecified)	-0.7	6	-1	-2.2%	-4.2	19
22	CC(Oc1ccc2ccc(=O)oc2c1)C(=O)NC1CC(C)(C)NC(C)(C)C1 (stereo unspecified)	0.2	4	5	1.3%	-0.7	0
23	CCOC(=O)C(=O)/C(C#N)=C/Nc1ccccc1	-0.4	-2	-10	-0.3%	-0.6	-8
24	CCOC(=O)c1cnc2ccc(Cl)cc2c1Nc1ccc(OCC)cc1	0.8	·	3	1.3%	·	·
25	c1ccc(Cn2ncc3c(N4CCN(c5ccccc5)CC4)ncnc32)cc1	1.4	8	35	0.9%	5.7	5
26	O=C(Nc1ccc(NC(=O)c2ccco2)nc1)c1ccco1	-0.2	6	4	-0.1%	-5.8	5
27	CC(=O)Nc1c(C)nn(-c2ccccc2)c1N1CCC(C(=O)Nc2cc(Cl)ccc2C)CC1	0.2	·	-6	0.0%	·	·
28	Cc1cc(C)cc(OCC(=O)NCCc2nc3ccccc3[nH]2)c1	-0.3&2.8	-7	-9&16	-0.1%&-0.1%	-7.0	-7
29	CCOC(=O)c1c(C)[nH]c(C(=O)CSc2nccc(C)n2)c1C	2.9	-1	2	0.0%	-2.4	-7
30	CCC(C)(C)NC(=O)CN(CCc1cccc(C)c1)C(=O)c1csnn1	-0.8	2	7	-1.3%	3.1	-3
31	CC(=O)Nc1ccc(S(=O)(=O)N/N=C/c2ccc(C)s2)cc1	1.4	29	32	-2.5%	-2.3	4
32	CCCn1c2ccccc2c2nnc(SCC(=O)Nc3nnc(CC(=O)OCC)s3)nc21	-0.5	-16	21	-0.3%	-1.6	-4
33	COc1ccc(C2CC(O)(c3ccccc3)Oc3cc(OC)c(OC)c(OC)c32)cc1 (stereo unspecified)	3.2&2.1	-18	16&34	6.1%	13	27
34	O=C(CCl)N(CCc1ccccc1)CCc1ccccc1	1.9	2	38	-1.1%	-0.3	-10
35	O=C(N/N=C/c1ccc(OCCCF)cc1)c1ccc(C(F)(F)F)cc1	0.0	3	-15	3.9%	1.9	-9
36	N/C(CC1CC1(Cl)Cl)=N\OC(=O)c1ccccc1 (stereo unspecified)	0.0	14	1	-0.5%	10	?
37	Cc1ccc(-c2cn3cccnc3n2)cc1NC(=O)Cc1ccccc1	0.0	·	-2	1.4%	·	·
38	CC(=O)Nc1ccc(OC(=O)Cc2ccc(Cl)cc2)cc1	0.3	-12	8	1.1%	-3.9	-4
39	CCOc1ccc(NC(=O)N(Cc2c[nH]c3ccccc23)C2CCCCCC2)cc1	2.7	·	-3	-0.4%	·	·
40	CCOC(=O)C1=C(C)Nc2ccccc2N=C1NC(=O)CCCN1C(=O)c2ccccc2C1=O	-1.1	2	26	1.1%	-3.5	-1
41	Cc1cc(C)cc(NC(=O)C2C3C=CC4(O3)C2C(=O)N(CCCN2CCCCC2)C4C(=O)NC2CCCCC2)c1 (stereo unspecified)	-0.3	10	1	0.8%	1.0	-18
42	CC(C)(C)C1CCC(OCC(O)CN2CCN(c3ccccn3)CC2)CC1 (stereo unspecified)	0.6	2	13	4.0%	?	20
43	COc1ccc(C(CNC(=O)C2CC(=O)N(Cc3ccccc3)C2)N2CCCC2)cc1 (stereo unspecified)	-1.0	-2	3	2.5%	-2.9	-25
44	COc1cccc(C(=O)Nc2ccc(NC(=O)C3C4C=CC(C4)C3C(=O)O)cc2)c1 (stereo unspecified)	0.0	13	27	4.9%	1.3	7
45	CC/C(=N/NC(=O)c1ccccc1)c1ccc(OCCN2CCOCC2)cc1	-1.0	2	-3	3.1%	-2.6	-2
46	O=C(NCc1ccco1)c1ccc(COc2cccc3ccccc23)cc1	4.3	-3	23	5.0%	2.0	-7
47	CCN1C=C(C(=O)OC)C(c2cccc(C)c2)C(C(=O)OC)=C1	0.2	21	-2	8.4%	-0.3	-5
48	O=C1N(Cc2cccnc2)C[C@@H]2C[C@@H](c3ccc4nonc4c3)N3CCC[C@@]123	0.0	-3	11	0.6%	-5.8	-10
49	Cc1nn(Cc2ccccc2Cl)c2sc(C(=O)OC3CCCC3=O)cc12 (stereo unspecified)	8.8	5	-4	-5.9%[38.3 µM]	-2.4	-6
50	CCCC(=O)N1CCC1(C)C(=O)Nc1ccc(-n2cccc2)cc1 (stereo unspecified)	-1.1	-12	·	0.4%	-2.6	2
51	CC(C)Sc1nc2ccccc2n1CC(=O)O	0.2	5	-21	-0.7%	-2.5	-2
52	Cc1c(Br)c(C(N)=O)nn1C	3.1	1	-14	4.9%[38.3 µM]	-2.8	-5
53	CCCOc1ccccc1C(=O)Nc1nc2c(s1)CCCC2	2.9	·	33	5.7%	·	·
54	CCOc1ccc(-c2nc(CSCC(=O)NCCN3CCOCC3)c(C)o2)cc1	-0.2	6	42	-1.3%	0.9	-6
55	Cc1ccc(C(=O)N2CCCC2)cc1S(=O)(=O)N1CCOCC1	-0.1	0	4	-1.1%	-1.9	-7
56	COc1cccc(-c2cnc(C(O)c3ccc(Cl)cc3C)[nH]2)c1 (stereo unspecified)	-0.9	-20	·	4.3%	4.1	-10
57	CCCC[C@@H]1Cc2[nH][nH]c(=O)c2[C@H](c2ccc(C(C)C)cc2)O1	-0.6	0	·	1.6%	·	·
58	O=C(Nc1ccc(F)cc1)C1CC(=O)n2c(nc3ccccc32)N1 (stereo unspecified)	0.2	6	0	0.4%	1.9	-5
59	COc1cc(OC)cc(-c2c(-c3cccs3)c3cc(-c4ccc(OC)c(OC)c4)ccc3n2C)c1	-0.4	?	-24	0.8%	-2.6	3
60	Cc1oc2nc(SCC(=O)NCCCO)nc(N)c2c1C	0.1	-2	-15	0.7%	0.1	-5
61	CC(=O)NC1C(=O)N=C(SCC(=O)Nc2c(C)cccc2C)NC1=O (stereo unspecified)	-0.3	-2	6	1.6%	-3.4	0
62	CCCC(CCC)=NNC(=O)c1ccccc1F	0.3	22	-8	?	-4.6	-3
63	CC1(C)OC(=O)C(=Cc2ccc(-c3ccc(Cl)c(C(=O)O)c3)o2)C(=O)O1	-0.7	-23	-3	2.9%	-3.0	-11
64	CCOCCn1c(=NC(=O)c2ccc3c(c2)OCCO3)sc2cc(OCC)ccc21	-0.8	·	0	0.0%	·	·
65	COc1ccccc1C(=O)NC(=O)CSc1nnc(C)s1	-0.1	0	-12	-0.2%	2.0	7
66	CC1(C)OC(=O)C2=C(C[C@@H](CCc3ccccc3)O[C@H]2C2CCCC2)O1	0.1	-12	·	12%	·	·
67	Cc1ccc(-c2cc3c(n2-c2ccc(C)cc2)CC(C)(C)CC3=O)cc1	2.3	·	9	0.3%	·	·
68	COc1ccccc1NC(=O)Nc1ccnn1C1CCN(C(=O)C2CCOC2)CC1 (stereo unspecified)	-0.2	1	12	-0.6%	-1.0	-18
69	COc1ccc(-c2cn3nc(SCC(=O)Nc4ccccc4F)ccc3n2)cc1	-0.6	·	-2	1.8%	·	·
70	CCCCNC(=S)Nc1ccc2nc3n(c(=O)c2c1)CCCCC3	1.8	-1	-8	4.9%	-1.3	-1
